TRPML1 ag: agonists of human TRPML1 channel | TRPML1-expressing cells, Ca2+ dye fluorescence, FDSS; host cell line not named in the record; reference of the full effect not given here | activation, % (no concentration beside the values) | 0.12% of 410,000 active | AID 624414; in the data active = activation above about 50%; inconclusive = about 30% to 50%; inactive = below about 30%; further: 0% is about no effect; the text of the record puts the active cut at 80%
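TRPML1-DL cells, Tet-induced overnight (~16 h, 37 degrees C), loaded 45-90 min at room temperature with Ca8 no-wash calcium dye plus quencher. FDSS fluorescence: 10 s baseline, compound pin-transfer, 110 s agonist read, then EC80 54-4 (4uM final) and 110 s antagonist read.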
TRPML1 blocker: inhibitors of human TRPML1 channel; AID 624415; activity change, negative = inhibition, % (no concentration beside the values); TRPML1-inducible cells, Ca2+ dye fluorescence, FDSS; hits give low values; inhibition of EC80 agonist-evoked calcium signal; 0.02% of 390,000 active; in the data active means activity change below about -50%; inconclusive means about -30% to -50%; inactive means above about -30%;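 further: stimulus is agonist 54-4 at its EC80 concentration; on the % scale 0 is the no-effect control and ±100 the full control effect; compound concentration not given in the record; the text of the record puts the active cut at -80%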
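TRPML1-DL cells, Tet-induced overnight (~16 h, 37 °C) at 1,500 cells/well, were loaded with Ca8 no-wash dye plus quencher for 45-90 min at room temperature. Compounds were pinned during FDSS kinetic reading; agonist 54-4 at EC80 (4 uM final) then added.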
Six1-Eya2 inh: Six1/Eya2 interaction inhibition | 0.56% of 360,000 active | AlphaScreen GST-Six1/His-Eya2 binding, biochemical; hits give low values; control for the full effect not named in the record | activity change, % (concentration not given with the values); in the data active = activity change below about -65%; inconclusive = about -30% to -65%; inactive = above about -30%; further: on the % scale 0 is the no-effect control and ±100 the full control effect
Target sequence (O00167 whole entry, looked up): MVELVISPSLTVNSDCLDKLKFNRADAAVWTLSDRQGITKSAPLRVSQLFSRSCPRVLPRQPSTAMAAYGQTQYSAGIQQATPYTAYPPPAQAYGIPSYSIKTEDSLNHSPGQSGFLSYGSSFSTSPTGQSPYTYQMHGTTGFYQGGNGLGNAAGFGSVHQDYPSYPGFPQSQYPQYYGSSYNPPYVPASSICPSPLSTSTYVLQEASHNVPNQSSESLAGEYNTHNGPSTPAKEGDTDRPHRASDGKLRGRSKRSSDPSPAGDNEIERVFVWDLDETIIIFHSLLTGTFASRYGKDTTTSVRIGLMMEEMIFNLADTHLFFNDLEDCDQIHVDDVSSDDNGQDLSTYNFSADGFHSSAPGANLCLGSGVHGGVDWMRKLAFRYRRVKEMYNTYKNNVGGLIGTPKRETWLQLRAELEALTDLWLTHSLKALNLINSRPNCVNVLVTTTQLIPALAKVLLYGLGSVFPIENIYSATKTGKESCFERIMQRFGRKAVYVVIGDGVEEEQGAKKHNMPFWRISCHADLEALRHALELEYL
Target sequence (Q15475 whole entry, looked up): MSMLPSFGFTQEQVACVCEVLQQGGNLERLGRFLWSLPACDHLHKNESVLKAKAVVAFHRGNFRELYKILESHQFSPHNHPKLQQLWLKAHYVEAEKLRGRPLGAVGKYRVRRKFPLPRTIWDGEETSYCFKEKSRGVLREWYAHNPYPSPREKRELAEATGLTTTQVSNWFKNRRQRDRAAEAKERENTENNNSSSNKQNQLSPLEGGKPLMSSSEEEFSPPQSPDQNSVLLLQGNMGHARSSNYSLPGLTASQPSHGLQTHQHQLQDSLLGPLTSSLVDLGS
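Compounds are tested against tagged Six1 and Eya2 proteins bridged by glutathione donor and nickel acceptor beads; after a one-hour incubation at 37 °C without light, AlphaScreen emission is recorded.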
D2 potentiator: potentiates the human D2 dopamine receptor allosterically | 0.23% of 360,000 active | DiscoveRx D2 beta-arrestin cells, luminescence, 90 min; 100% = 57 uM dopamine signal | potentiation, % (concentration not given with the values) | P14416; active = potentiation of 50% or more; inconclusive = 30% to 50%; inactive = 30% or less;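 further: compound concentration not given in the record; tested on top of an EC20 dose of dopamine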
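PathHunter beta-arrestin assay in DiscoveRx D2 cells. Compounds were added with an EC20 of dopamine (50 nM final) for 90 min at 37 deg C. Luminescence was read 1 h after detection reagent, with 57 uM dopamine as the EC100 control.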
D2 agonist: human D2 receptor agonism in beta-arrestin assay; DiscoveRx PathHunter D2 beta-arrestin, luminescence, 90 min; 100% = 57 uM dopamine signal; activation, % (test concentration not listed); 0.084% of 360,000 active; in the data active = activation above about 40%; inconclusive = about 15% to 40%; inactive = below about 15%; further: compound concentration not given in the record; the text of the record calls up to 30% inactive
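Agonist mode: compounds alone added to overnight-plated D2 PathHunter cells for 90 min at 37 C, with 57 uM final dopamine (EC100) defining full response. Beta-arrestin recruitment detected by chemiluminescent reagent, read after 1 h at ambient temperature.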
PINK1 modulator: changes PINK1 expression; Potency, µM (doses to about 76.6 µM), inactives show top-dose activation (PINK1 increase), actives largely listed as activators; PINK1 immunofluorescence, high-content cytometry, 24 h; 0.2% of 410,000 active; active = well fitted activation curve with a large enough effect; inconclusive = small, poorly fitted or top-dose-only effect; inactive = flat fitted curve, though single readings scatter; cell line not stated here;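 further: potency means the concentration at half of the fitted maximal effect; % of control where 0% means no effect; nearly all actives have a fitted effect of over 65% in size; a mitochondrial uncoupler was the plate control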
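PINK1 protein level read as immunofluorescence by microplate cytometer in a fixed, stained stable cell line after 24 h exposure to five compound concentrations, with CCCP as control.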
Active calls of the source: *; ? = inconclusive; / = no result given; [ ] = another dose, or the depositor's remark.

Results follow in this order: D2 agonist	TRPML1 blocker	PINK1 modulator	Six1-Eya2 inh	TRPML1 ag	D2 potentiator
> CN1/C(=C\C(=O)c2cccc(S(=O)(=O)N3CCCCC3)c2)C(C)(C)c2ccccc21
  0.6	-3.5	0.6%	50.0	-0.7	2.9
> CN(Cc1ccccc1)c1ccc(-c2nc(-c3ccco3)no2)cc1[N+](=O)[O-]
  /	16.6	1.6%	/	-0.9	/
> COC(=O)c1cc(OC)c(OC)cc1NC(=O)c1ccc(OC)cc1
  -1.6	30.8	7.3%	-3.0	-0.4	28.0
> CC1(C(=O)NCc2ccccc2Br)CCN1C(=O)Cc1ccc(-c2ccccc2)cc1 (stereo unspecified)
  5.6	/	8.3%	-1.1	0.4	-5.3
> CC(C)CCN1CC(C(=O)N2CCN(c3ccc(F)cc3)CC2)CC1=O (stereo unspecified)
  -3.3	10.5	0.3%	1.7	-0.3	-28.3
> CCc1ccc(NC(=O)[C@@H](NC(=O)[C@@H]2Cc3ccccc3CN2)C(C)CC)cc1 (stereo partly specified)
  -3.6	18.6	2.8%	2.1	0.7	-19.6
> CCn1c(SCC(=O)N2CCCc3ccccc32)nnc1-c1cccs1
  3.5	25.6	1.3%[38.3 µM]	7.7	1.7	-6.1
> Cc1ccc(OCC(=O)Nc2ccc3nc(SCCOc4ccccc4)sc3c2)cc1
  /	4.1	0.2%	/	-0.8	/
> Cc1c(C(=O)NCCS(=O)(=O)N2CCN(c3ccccc3F)CC2)cccc1[N+](=O)[O-]
  -4.0	9.5	8.1%	-1.4	0.2	-4.0
> CCOC(=O)[C@H]1[C@H]2COc3cc(OC)ccc3[C@@H]2N2C(=O)CN(Cc3ccc(OC)cc3)C(=O)[C@@]12C
  3.0	22.3	0.2%	-4.2	0.2	-4.9
> CCOCCCNCc1ccc(OCCC(C)C)c(OC)c1
  -6.0	52.0	1.3%	14.7	0.7	-8.2
> Cc1noc(C)c1CSCC(=O)N(C)CC(=O)Nc1ccc(Cl)c(C(F)(F)F)c1
  1.8	6.1	6.1%	-0.4	-0.8	-4.8
> COc1ccc2nc(NC(=O)c3ccc(Br)s3)sc2c1
  -3.6	4.7	5.9%	4.3	-1.1	-18.1
> Cc1ccccc1NC(=S)Nc1ccc(Br)cc1
  -4.1	2.2	19.6%	13.7	0.2	-4.5
> Cc1nnc(SCC(=O)N2CC(=O)Nc3ccccc32)n1C
  -2.6	5.5	2.0%	-2.3	-0.9	-14.7
> CCCCN1C(=O)C2Cc3c([nH]c4ccccc34)CN2C1=S (stereo unspecified)
  -2.4	-1.6	4.7%	1.1	5.3	-2.8
> COc1cc(OC)cc(C(=O)N[C@H](C(=O)Nc2nc(-c3ccc(OC)c(OC)c3)cs2)C(C)C)c1
  -3.8	-7.7	5.6%	-2.6	0.3	-19.9
> Cc1cccc2c(SCC(=O)NCC3CCCO3)nc(-c3ccc(F)cc3)nc12 (stereo unspecified)
  2.1	2.9	6.6%[38.3 µM]	-11.5	-0.3	-2.2
> COc1ccccc1/C=C/C(=O)Nc1nc(N)n(-c2ccccc2)n1
  -5.0	-8.8	-1.2%	-9.0	-1.0	-14.4
> Cc1ccc(NC(=O)CCC(=O)N2CCOCC2)nc1
  5.2	15.3	-0.9%	-2.0	1.4	7.4
> COc1ccc(/C=N/NC(=O)C(=O)/C=C2\NC3(CCCC3)Cc3ccccc32)cc1
  3.5	16.7	-1.5%	-11.0	2.8	2.3
> C/C(CC(=O)Nc1ccccc1C(F)(F)F)=N\NC(=O)c1cnccn1
  -1.7	-9.2	0.4%	-2.5	-0.1	-5.3
> O=C1NC[C@H](Cc2ccccc2)N(CC2CCN(CCCCc3ccccc3)CC2)C1=O
  -2.1	4.7	-0.5%	-0.3	-0.2	-22.1
> CCOC(=O)c1ccc(CC2SC(N)=NC2=O)cc1 (stereo unspecified)
  5.9	14.2	-2.3%	2.0	-0.7	2.1
> CCc1cc(=O)oc2cc(C)cc(OCc3nn[nH]n3)c12
  -3.5	-14.7	0.1%	-16.7	0.6	-18.7
> CN1CCN(C(c2ccc(Cl)cc2)c2cc(Cl)c3cccnc3c2O)CC1 (stereo unspecified)
  -17.7	-15.0	2.4%	?	0.6	-20.9
> Cc1nc(C(=O)N2CCCC(N3CCN(c4ccc(F)cc4)CC3)C2)cs1 (stereo unspecified)
  -0.7	-0.9	-0.4%	5.1	-0.8	-19.8
> COc1cccc(C(NC(C)=O)c2nc(-c3ccc(F)cc3OC)cs2)c1 (stereo unspecified)
  -5.7	/	0.5%	-2.4	-0.9	-5.8
> O=C(CSc1ncnc2ccccc12)NCCCO
  -3.1	-4.8	-4.7%	2.2	-0.4	-8.2
> CC1CCCC(C)N1CCOc1cc(N)ccc1C#N (stereo unspecified)
  -0.9	7.9	2.3%	11.6	-0.2	-12.7
> Fc1cccc(Cl)c1Cn1nnc(-c2ccc3c(c2)OCO3)n1
  -5.5	3.8	0.9%	22.7	-0.1	-3.2
> Cc1ccc(-n2c(-c3ccc(Cl)cc3)c[n+]3c2CCC3)cc1
  -2.4	14.2	0.5%	-3.6	3.5	-10.9
> Cc1c(C=O)c2ccccc2n1CC(=O)O
  4.5	3.0	0.2%	6.0	2.4	8.3
> CCOC(=O)CSc1nc(C)cc2c1C(=O)OC2
  -0.3	6.8	1.8%	3.4	0.1	-1.0
> CC(C)C(OC(=O)c1cccs1)C(=O)NCc1ccc2c(c1)OCO2 (stereo unspecified)
  -2.9	-13.7	-0.2%	-0.5	1.6	-1.4
> Cc1ccc2c(NC(=S)NC(=O)c3ccccc3)cccc2n1
  -12.0	-5.4	0.9%	-10.4	0.9	-23.6
> O=C(CSc1nnc2scc(-c3ccccc3)n12)NCc1ccc2c(c1)OCO2
  0.9	-0.2	-0.7%	-3.2	2.6	-7.2
> Cc1ccc(NC(=O)C2CC(O)CN2C(=O)Oc2ccccc2)c(C)c1 (stereo unspecified)
  2.2	46.4	0.8%	7.6	0.5	0.1
> COc1ccc(C(=O)OCC(=O)c2ccc(F)cc2)cc1OC
  0.4	-15.3	-0.2%	11.7	-0.2	-11.6
> CC(C(=O)NCCN1C(=O)S/C(=C\c2cccs2)C1=O)N1C(=O)c2ccccc2C1=O (stereo unspecified)
  -3.0	0.8	0.0%	-7.9	-0.7	-3.1
> Cc1ccc(CNC(=O)Cn2cnc(C(=O)Nc3ccc(C)c(C)c3)n2)o1
  -1.2	-2.1	0.1%	-4.2	-1.0	-1.7
> O=C1CC(c2ccccc2)c2cccc(F)c21 (stereo unspecified)
  -1.3	-3.3	1.9%	6.7	1.9	-10.7
> Cc1cc(N/C=C\c2nnnn2-c2ccccc2)no1
  -2.9	-3.5	4.0%	-6.7	1.0	-10.4
> CCC(CC)CN1CCN=C1Nc1ccccc1
  -3.6	7.8	-0.9%	3.1	0.3	-11.0
> N#CC1=C(N)Oc2cc(O)ccc2C1c1ccccc1 (stereo unspecified)
  -3.3	2.0	3.2%[38.3 µM]	-2.4	0.2	-8.5
> Cc1cc(Nc2cccc(Br)c2)c2ccccc2n1
  -1.8	9.3	?	-1.9	-0.6	-15.5
> O=C1NCCCc2nc(Oc3ccccc3)sc21
  -2.9	-2.3	3.7%	1.2	-0.7	-20.9
> CC(=O)Nc1ccc(NC(=O)COC(=O)c2ccc(S(=O)(=O)N(C)c3ccccc3)cc2)cc1
  -0.6	-9.6	6.0%	0.2	0.7	-0.2
> COC(=O)c1cnc(Nc2nc(C(N)Cc3ccc(OC)cc3)cs2)nc1C(F)(F)F (stereo unspecified)
  5.3	/	-0.3%	-17.3	0.8	-5.6
> COc1ccc(N(S(=O)(=O)c2ccccc2)S(=O)(=O)c2ccccc2)c(N)c1
  5.1	10.1	4.0%	-1.9	0.2	12.4
> O=S(=O)(CC(CN1CCCCC1)N1CCCCC1)c1ccc2ccccc2c1 (stereo unspecified)
  -1.1	-1.6	-1.2%	0.0	-0.4	-5.8
> Cc1ccc(-n2c(N)cc(=O)nc2SCC(=O)N2CCN(c3ccccc3)CC2)cc1C
  -2.3	-9.3	2.0%	-1.1	-0.1	-19.6
> Cc1cc([N+](=O)[O-])nn1CC(=O)Nc1ccc(Cl)cn1
  -1.8	-6.0	-0.8%	0.5	-0.6	-2.3
> COc1ccc(Oc2ncccc2NC(=O)c2cccc(C)c2C)cc1
  -4.0	13.0	2.3%	1.0	0.8	-5.9
> COC(=O)CSc1nc2sc3c(c2c(=O)n1Cc1ccccc1)CCC(C(C)(C)C)C3 (stereo unspecified)
  /	28.4	2.0%	/	0.1	/
> O=C(NC1CCN(S(=O)(=O)c2cccc(F)c2)CC1)c1cccc(F)c1
  -5.7	0.0	5.1%	-1.0	0.9	-1.3
> O=C(CSc1oc(-c2ccco2)nc1S(=O)(=O)c1ccc(Cl)cc1)Nc1ccc(F)cc1
  /	14.7	11.4%	/	-0.3	/
> Cc1ccc(Cc2c(-c3cccc(Br)c3)nc3c(Cl)cc(C(F)(F)F)cn23)cc1
  /	/	?	-2.3	29.1	/
> O=C(C(=NNc1ccccc1)C(=S)Nc1ccccc1)c1ccccc1
  -3.7	/	4.3%	?	-0.9	-2.3
> Cc1cc(C(=O)NCCc2ccc(S(N)(=O)=O)cc2)no1
  6.4	-7.2	-1.9%	-4.2	0.4	-2.7

An excerpt from the list above:
Results follow in this order: D2 agonist	TRPML1 blocker	PINK1 modulator	Six1-Eya2 inh	TRPML1 ag	D2 potentiator
> Cc1ccc(CNC(=O)Cn2cnc(C(=O)Nc3ccc(C)c(C)c3)n2)o1
  -1.2	-2.1	0.1%	-4.2	-1.0	-1.7
> O=C1CC(c2ccccc2)c2cccc(F)c21 (stereo unspecified)
  -1.3	-3.3	1.9%	6.7	1.9	-10.7

Following part
Results follow in this order: D2 agonist	TRPML1 blocker	PINK1 modulator	Six1-Eya2 inh	TRPML1 ag	D2 potentiator
> CC(=O)Nc1ccc(S(=O)(=O)NCCC(=O)NCc2ccncc2)cc1
  0.1	-5.4	-1.5%	2.8	0.7	5.1
> COc1cc(CNc2cccc(F)c2)cc(Br)c1O
  4.5	-5.7	2.7%[38.3 µM]	-3.8	-0.2	-0.6
> CCN(CC)CCN(C(=O)c1cc2c(ccc3ccccc32)oc1=O)c1nc2cc3c(cc2s1)OCCO3
  -4.3	1.8	-1.4%	-13.5	1.0	-33.1
> COC(=O)c1ccc(C)cc1C1CN=NC12Cc1cc(C)ccc1C2=O (stereo unspecified)
  4.8	-21.6	2.9%	7.7	95.4*	11.3
> COc1ccc(C(=O)NCCc2ccc(C)cc2)cc1OC1CCN(C(C)=O)CC1
  -3.0	-4.0	-0.2%	-3.7	-0.4	-6.0
> CC(C)C(NC(=O)C(C)N1C(=O)c2ccccc2C1=O)c1ccccc1 (stereo unspecified)
  -2.2	21.1	-0.9%	10.4	0.4	-0.4
> Cc1ccc(S(=O)(=O)CCC(=O)Nc2cccc(Cl)c2)cc1
  -3.4	-5.2	0.1%	-0.2	-0.6	-17.4
> O=C(Cn1cc(C(F)(F)F)ccc1=O)N/N=C/c1ccccc1
  -3.2	-28.4	2.3%	5.2	0.5	-1.7
> CCCCn1nc(C(=O)Nc2ccc3c(c2)OCCO3)c2ccccc2c1=O
  2.1	-6.2	1.5%	-10.6	1.2	0.6
> CN(C)C(=O)CCc1ccc2c3c([nH]c2c1)[C@]1(CCC2CCCC2)[C@@H](C(=O)N2CCOCC2)C[C@H](CC(=O)NCCc2ccccn2)C(=O)N1CC3
  -0.8	?	-0.7%	5.0	1.7	-1.5

No enrichment for hits; overall some 1% were active at least once.
